PINK1 modulator: modulators of PINK1 expression. PINK1 immunofluorescence, high-content cytometry, 24 h. hit rate 0.2% among 410,000. Potency, µM (series often up to 76.6 µM), without a hit: at the highest dose activation (PINK1 increase), most hits filed as activators; active = well fitted activation curve with a large enough effect; inconclusive = small, poorly fitted or top-dose-only effect; inactive = flat fitted curve, though single readings scatter; cell line not stated here;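 note: potency is the fitted concentration of half-maximal effect; % of control where 0% means no effect; nearly all actives have a fitted effect of over 65% in size; a mitochondrial uncoupler was the plate control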
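Stable cell line, 250 cells/well, 12 h attachment; compounds pinned at 5 concentrations, 24 h; CCCP control. Fixed with nuclear dye, primary antibodies 12 h at 10 degrees C, secondary plus cell stain; laser-scanning cytometer read.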
ClpP mod: qHTS Assay for Activators of ClpP | Potency, µM (doses to about 57.5 µM), for the others: at the top dose activity change, negative = active | ATP-dependent Clp protease proteolytic subunit (Bacillus subtilis (strain 168)), P80244 | hit rate 1.9% among 340,000 | purified B. subtilis ClpP, FRET peptide cleavage, 20 min; active = well fitted falling curve with a large enough effect; inconclusive = small, poorly fitted or top-dose-only effect; inactive = no such curve, though single readings can be large or run the other way; note: potency is the fitted concentration of half-maximal effect; the source files actives as falling curves though it sought activators and does not explain the sign; nearly all actives have a fitted effect of over 65% in size; many hits overshoot -100%
Target sequence (P80244 whole entry, looked up): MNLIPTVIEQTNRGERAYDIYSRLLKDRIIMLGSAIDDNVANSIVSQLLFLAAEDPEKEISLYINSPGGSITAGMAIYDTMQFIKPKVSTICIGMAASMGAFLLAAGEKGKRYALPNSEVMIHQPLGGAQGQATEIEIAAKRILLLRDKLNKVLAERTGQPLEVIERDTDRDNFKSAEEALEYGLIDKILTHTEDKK
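FRET quenching reversal measured ClpP activation: 10 microg/mL B. subtilis ClpP at pH 8 with the FRET-FV decapeptide, read at 430 nm after 320 nm excitation. The 20-min minus 0-min signal was scaled between DMSO/no-enzyme wells and ADEP (5.8 microM final).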
gsp agonist: activates gsp, the McCune-Albright syndrome mutation; Potency, µM (top dose mostly 76.9 µM), without a hit: at the highest dose activation (cAMP increase), hits mostly activators; hit rate 0.13% among 340,000; gsp mutant cells, cAMP HTRF, 30 min; control for the full effect not named in the record; AID 624287; active = well fitted activation curve with a large enough effect; inconclusive = small, poorly fitted or top-dose-only effect, or another doubt; inactive = no such curve, though single readings can be large or run the other way; cell line not stated here;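 note: phosphodiesterase inhibitor Ro 20-1724 added with compounds to block cAMP breakdown; potency is the fitted concentration of half-maximal effect; nearly all actives have a fitted effect of over 60% in size; about a fifth of the inactives were tested at one dose only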
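Cells stably selected in G418 were plated at 2000/well, grown 16-24 hr, then given compounds in DMSO with the PDE inhibitor […] (300 uM solution added) for 30 min at 37C; cAMP was read by HTRF.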
D2 ag: activates the human D2 dopamine receptor | P14416 | hit rate 0.084% among 360,000 | DiscoveRx PathHunter D2 beta-arrestin, luminescence, 90 min; 100% = 57 uM dopamine signal | activation, % (concentration not given with the values); in the data active = activation above about 40%; inconclusive = about 15% to 40%; inactive = below about 15%; note: compound concentration not given in the record; the text of the record calls up to 30% inactive
Target sequence (P14416 whole entry, looked up): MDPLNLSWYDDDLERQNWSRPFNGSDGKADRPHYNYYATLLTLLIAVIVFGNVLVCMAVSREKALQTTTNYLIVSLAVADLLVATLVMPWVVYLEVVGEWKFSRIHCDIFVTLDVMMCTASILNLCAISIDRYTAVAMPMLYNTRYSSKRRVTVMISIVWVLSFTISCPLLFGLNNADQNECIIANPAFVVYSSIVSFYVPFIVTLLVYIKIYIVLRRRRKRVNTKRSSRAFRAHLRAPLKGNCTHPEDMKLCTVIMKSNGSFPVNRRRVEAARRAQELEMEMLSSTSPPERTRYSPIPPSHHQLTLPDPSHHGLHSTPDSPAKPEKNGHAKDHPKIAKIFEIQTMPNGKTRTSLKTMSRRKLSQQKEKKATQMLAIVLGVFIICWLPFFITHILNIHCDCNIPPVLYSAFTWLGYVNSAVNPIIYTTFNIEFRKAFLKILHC
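Agonist mode: compounds alone added to overnight-plated D2 PathHunter cells for 90 min at 37 C, with 57 uM final dopamine (EC100) defining full response. Beta-arrestin recruitment detected by chemiluminescent reagent, read after 1 h at ambient temperature.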
Sfp PPTase inh: inhibitors of Bacillus subtilis Sfp phosphopantetheinyl transferase; Biochemical Sfp PPTase activity, qHTS; Q9F4F7; hit rate 3.5% among 310,000; Potency, µM, inactives show max response, negative = inhibition, actives largely listed as inhibitors; AID 1490; active = well fitted inhibition curve with a large enough effect; inconclusive = small, poorly fitted or top-dose-only effect, or another doubt; inactive = no such curve, though single readings can be large or run the other way;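 note: the enzyme is Sfp with the accession as filed and its product quenches rhodamine fluorescence; potency is the fitted concentration of half-maximal effect; 0% = enzyme reaction without inhibitor and -100% = no enzyme wells; top concentration of the series not given in the record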
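After 15 min at room temperature with compound, 15 nM Sfp received 5 uM rhodamine-CoA plus 12.5 uM BHQ-2-ybbR (50 mM Hepes pH 7.6, 10 mM MgCl2). Rate came from the fluorescence difference over 30 min, ex 525/em 598 nm.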
Menin MLL FP FL: inhibitors of human menin-MLL interaction, wild-type MLL peptide | Fluorescence polarization, fluorescein-MLL peptide displacement from menin | FP activity change, % at 61.4 µM | 290,000 tested, under 10 active; inconclusive = falling polarisation curve, or a change in total fluorescence; inactive = total fluorescence flat and polarisation flat or rising; no compound was filed as active; the % refers to the polarisation; negative = inhibition;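 note: % of control where 0% means no effect; inhibitors lower the polarisation; unlabelled MLL peptide was the positive control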
gsp antag: antagonizes gsp, the McCune-Albright syndrome mutation | AID 624288 | hit rate 0.4% among 340,000 | Potency, µM (doses to about 76.9 µM), for inactives: at the top dose activity change, negative = inhibition, most hits filed as inhibitors | gsp-mutant cells, cAMP HTRF, 30 min; control for the full effect not named in the record; active = falling curve of any shape with a large fitted effect; inconclusive = falling curve, mostly with a smaller effect; inactive = flat or rising curve; cell line not stated here;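 note: intracellular cAMP measured with PDE inhibitor Ro 20-1724 present during compound exposure; potency is the fitted concentration of half-maximal effect; % is set by controls: 0 for no effect and ±100 for the full control effect; nearly all actives have a fitted effect of over 65% in size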
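Measurement of cellular cAMP by homogeneous time-resolved fluorescence following a 30 min compound exposure at 37C. The PDE inhibitor […] was present throughout; the assay buffer was DPBS with 0.05% BSA and 0.005% Tween 20.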
* = called active by the depositor; ? = inconclusive; / = not tested or not shown; [ ] = remark or other dose.

SMILES | PINK1 modulator | ClpP mod | gsp agonist | D2 ag | Sfp PPTase inh | Menin MLL FP FL | gsp antag
CCC(C)Sc1nnc(CSc2nc3nc(C)cc(C)n3n2)o1 (centres undefined) | / | -1.1% | -75.4%[inhibitor] | 2.1 | 5.4% | 5.2 | 3.9%
Cc1cccc(NC(=O)c2cccc(C(=O)Nc3cccc(C)c3)c2)c1 | ? | / | 6.7% | -9.2 | 5.4% | -1.4 | 21.1%
CN(CCNC(=O)C1CCN(S(=O)(=O)c2cnc[nH]2)CC1)Cc1ccccc1 | -0.3% | -1.9% | -15.8% | -1.5 | 1.1% | -0.5 | 2.6%
CCC(=O)N1CCc2cc(Br)c(S(=O)(=O)CCC(=O)NCCc3ccccc3)cc21 | 1.4% | / | -33.7%[inhibitor] | 0.1 | / | / | -8.5%
COC(=O)c1ccc(N2CCCCC2)c(NC(=O)c2ccco2)c1 | -0.2% | / | 8.2%[15.4 µM] | -2.5 | -11.6% | 5.3 | ?
O=C1CC[C@@H]2CC(N3CCN(c4ccccc4)CC3)C[C@@H]3CCN1[C@H]23 (some centres undefined) | 0.8% | 0.0% | / | 5.3 | / | / | 6.2%
COc1ccc(C(=O)NC(C(=O)N2CCN(C/C=C/c3ccccc3)CC2)C(C)C)cc1 (centres undefined) | 1.4% | 0.3% | -5.0% | -0.1 | / | / | /
COc1ccc(C(=O)C[n+]2cccc(C)c2C)cc1[N+](=O)[O-] | -0.7% | / | 0.3%[15.4 µM] | -4.6 | -4.5% | -0.7 | 7.5%
O=C(O)c1sccc1S(=O)(=O)N1CCN(c2ccc(C(F)(F)F)cn2)CC1 | -0.1% | / | ? | -2.2 | 20.8% | 1.6 | 5.6%
Cc1ccc(CC(=O)Nc2cccnc2)cc1 | 0.4% | 0.5% | -33.5%[inhibitor] | -6.2 | 18.1% | 1.3 | 1.4%
CC1=NNC(=O)C1CC(=O)N/N=C(\C)c1cccs1 (centres undefined) | 1.7% | / | -24.3% | -0.6 | 8.9% | -0.1 | -3.9%
CC(C)(C)c1ccc(C(=O)Oc2ccccc2CCC(=O)O)cc1 | -1.3% | / | -4.9%[15.4 µM] | 2.5 | -5.4% | 10.0 | 3.9%
Cc1ccc(S(=O)(=O)Nc2ccc(Br)cc2/C=N/n2cnnc2)cc1 | / | -2.7% | 2.9% | -1.5 | 3.8% | 12.0 | -23.7%
O=C(CN1C(=O)CCS(=O)(=O)c2ccccc21)NCc1ccc(F)cc1 | 2.0% | -3.1% | -11.3% | -1.9 | 5.6% | 0.0 | 7.2%
CCCCCN(C(=O)COC(=O)Cc1c(C)nc2ccccc2c1C)c1c(N)n(CCCC)c(=O)[nH]c1=O | 4.0% | 1.7% | 16.9% | -5.0 | / | / | 0.2%
COc1ccc(S(=O)(=O)N2c3ccccc3OCC2CC(=O)O)cc1 (centres undefined) | 11.5% | 1.3% | 20.1% | 1.8 | 16.7% | -1.7 | 0.7%
Cc1ccccc1OC1C(=O)N(Cc2ccc3c(c2)OCO3)C1c1sccc1C (centres undefined) | -1.8%[38.3 µM] | -2.0% | 1.7% | 2.5 | -3.4% | 0.3 | -24.1%
Cc1cc(C)nc(SCC(=O)N/N=C/c2cccn2-c2cccc(C(F)(F)F)c2)n1 | 1.1% | -2.4% | 5.5% | -0.3 | -17.8% | 0.2 | -10.5%
O=C(NCc1ccco1)c1ccc(-c2cccc(Cl)c2)o1 | 0.0% | / | -20.6%[15.4 µM] | -3.0 | -13.5% | 4.8 | -10.6%
O=C(Cn1ncc2c([nH]c3ccccc32)c1=O)N1CCOCC1 | 1.9% | 4.1% | 2.0% | 1.5 | 11.0% | 1.4 | 6.2%
O=C(COC(=O)c1cccs1)Nc1cccc(Cl)c1 | 1.7% | -1.5% | -6.4% | 2.8 | / | / | 6.9%
Cc1ccc(-c2nc(CS(=O)CC(=O)NCc3ccco3)c(C)o2)cc1 (centres undefined) | -0.4% | / | -7.9% | -1.5 | 3.3% | 0.4 | 7.3%
Cc1cc(/C=N\NC(=O)CC(=O)NC2CCCCC2)c(C)n1-c1cccc(Cl)c1Cl | 6.6% | -1.7% | -32.8%[inhibitor] | -3.1 | 4.4% | 0.7 | 14.5%
CCCCCC(=O)OC(CN1CCCCC1)CN1CCCC1=O (centres undefined) | -0.8% | -0.9% | 9.1% | -0.5 | 1.1% | 3.6 | 9.1%
CCOc1ccc(N(C)S(=O)(=O)c2ccc(-c3cc(C)no3)s2)cc1 | 4.3% | 0.1% | 6.1% | 0.6 | 7.9% | / | 4.8%

Compound profiles, as listed above. Order of screens: PINK1 modulator, ClpP mod, gsp agonist, D2 ag, Sfp PPTase inh, Menin MLL FP FL, gsp antag
Cc1ccc(CC(=O)Nc2cccnc2)cc1 is entered as 0.4%, 0.5%, -33.5%[inhibitor], -6.2, 18.1%, 1.3, 1.4%
Cc1ccc(-c2nc(CS(=O)CC(=O)NCc3ccco3)c(C)o2)cc1 (centres undefined) is entered as -0.4%, /, -7.9%, -1.5, 3.3%, 0.4, 7.3%

Next part.
SMILES | PINK1 modulator | ClpP mod | gsp agonist | D2 ag | Sfp PPTase inh | Menin MLL FP FL | gsp antag
CC1=CCC2C(=O)N(c3ccccc3OC(=O)c3ccccc3F)C(=O)C2C1 (centres undefined) | -2.8% | -1.8% | 7.3%[15.4 µM] | -0.9 | -3.8% | 6.9 | 10.0%
NC(=O)C1CC(=O)N(c2ccc(OCc3ccccc3Cl)cc2)C1 (centres undefined) | -1.5% | 1.7% | -86.0%[inhibitor] | -0.9 | 13.9% | -0.9 | 5.4%
CN(C)Cc1c(O)ccc2oc(Cc3ccccc3)cc12 | 0.1% | 2.6% | -32.6%[inhibitor] | -0.8 | -4.4% | -0.2 | 32.5%
Cc1ccc(S(=O)(=O)NCC(=O)NCC(=O)OC(C(=O)NC(N)=O)C(C)C)cc1C (centres undefined) | -0.3% | 1.0% | 0.5% | 1.2 | 16.7% | 4.5 | 12.8%
CC(=O)OC[C@@]1(O)C[C@]23CCC4c5ccoc5CC[C@@]4(C)C2CCC1C3 (some centres undefined) | -0.8% | / | / | / | 20.2% | 0.4 | /
O=C(COc1ccccc1-c1ccccc1)Nc1ccc(S(=O)(=O)NCc2ccco2)cc1 | 3.4% | 8.5% | 6.4% | 5.5 | ? | 2.6 | -26.3%
CCOC(=O)Nc1cc(C)c(Cl)cc1OC | 0.2% | 0.9% | -26.9% | -2.2 | 10.1% | 4.3 | -0.8%
COc1ccc(/C=C/C(=O)OCC(=O)NC2CCCCC2C)c(OC)c1 (centres undefined) | 7.1% | -0.4% | 5.6%[15.4 µM] | 5.5 | / | / | -12.1%
CSc1ccc(CN(C)CC(=O)NC(C)c2ccccc2)cc1 (centres undefined) | -0.1% | -0.5% | -10.8%[15.4 µM] | -2.7 | ? | 6.2 | 9.3%
Cc1csc(NC(=O)C2CCCCN2S(=O)(=O)c2ccccc2)n1 (centres undefined) | 0.1% | -0.5% | 13.7%[15.4 µM] | -5.6 | 15.8% | 3.8 | -12.9%
COc1ccc(S(=O)(=O)/C(C#N)=C/Nc2ccccc2F)cc1 | -1.2% | -0.5% | 10.5% | 1.4 | 9.4% | 0.0 | ?
CCOCCCn1c(=NC(=O)c2cccs2)c(C#N)cc2c(=O)n3ccccc3nc21 | -1.0% | -0.5% | 7.8%[15.4 µM] | -1.1 | -16.4% | ? | -24.5%
COc1cc(/C=C/C(=O)OCC(=O)Nc2cc(C)on2)ccc1OCC#N | 12.6% | / | -25.3%[15.4 µM] | -1.9 | / | / | -5.0%
COc1ccc(CCN(C)C(=O)c2ccc(C)c(S(=O)(=O)N3CCCCC3)c2)cc1OC | 6.5% | 1.9% | 2.2% | 0.0 | / | / | 8.6%
C[C@@H]1C(c2ccc(F)cc2)=NN(c2ccccc2)[C@H]1C(=O)N1CCOC1=O | 2.6% | -15.4% | / | -1.1 | -1.1% | -0.4 | -5.3%
CCCSc1nc(C)cc(C)c1S(C)(=O)=O | -0.9% | / | -9.9% | -0.8 | 17.5% | 0.4 | 1.6%
Cn1c(CNc2nc(-c3ccccc3)cs2)nnc1SCC(=O)N1CCc2ccccc21 | 4.1% | -24.4% | -23.3% | -3.2 | 1.4% | -0.3 | -8.7%
CCCn1c(SCC(=O)Nc2ccccc2C(=O)OC)nc2c1c(=O)n(C)c(=O)n2C | / | -0.6% | 18.8% | -3.3 | 23.0% | 0.8 | -9.1%
Cc1ccc(-c2nnn(CC(=O)N(Cc3ccco3)C(C(=O)NC(C)(C)C)c3cccs3)n2)o1 (centres undefined) | 5.5%[38.3 µM] | -0.2% | ? | -2.2 | ? | 8.6 | -5.0%
CCOc1ccc(-n2c(SCC(=O)Nc3ccc(OC)cc3OC)nc3c(c2=O)SCC3)cc1 | -1.1% | -8.2% | -1.4% | -3.6 | 4.2% | 2.4 | 7.1%
COc1cc(/C=N/N=C(\N)c2nonc2N)ccc1O | 0.8% | / | ? | -5.3 | -0.9% | -3.7 | 4.8%
O=C(NCC1COc2ccccc2O1)c1ccc(Br)s1 (centres undefined) | 0.3% | 1.4% | 9.0% | -3.6 | -1.4% | 2.3 | -12.3%
COc1ccc(S(=O)(=O)N2N=C(C)Oc3ccccc3C2=O)cc1 | 3.8% | -0.1% | 2.4% | -4.3 | 11.0% | 1.8 | 11.2%
O=C(c1ccccc1)N1CCn2c(nc3ccccc32)C1 | -3.3%[38.3 µM] | 9.5% | 24.2% | -1.0 | 11.5% | 2.0 | 7.9%
O=C(O)c1cccc(COc2cccc3ccccc23)c1 | -0.6% | -2.1% | 4.5%[15.4 µM] | -0.4 | / | / | -6.0%
O=C(C1CCCO1)N1CCN(C(=S)NC2CC2)CC1 (centres undefined) | 3.1% | 1.0% | 8.1% | 2.0 | 18.4% | -3.2 | 15.4%
COc1ccccc1-c1cc(C(=O)NCCCN2CCOCC2)no1 | -2.2% | / | 12.2% | -1.9 | 11.9% | 7.2 | 6.8%
CCOC(=O)c1c(C)cccc1OCC(N)=O | -0.9% | -2.6% | 4.9% | -0.2 | 0.8% | 1.5 | 9.5%
Cc1cc(C)n(CCC(=O)N/N=C/c2cccc([N+](=O)[O-])c2)n1 | 0.0% | -3.0% | -2.3% | -3.9 | 15.6% | 4.3 | 1.3%
